Screening results as filed in PubChem.
PV pol inh – poliovirus RdRp elongation inhibitors, primary screen, biochemical, fluorescence polarization, total intensity | 150,000 tested, 0.66% active | poliovirus polymerase elongation; active compounds read low | % elongation, % (compound at 16.7 µg/mL) | Genome polyprotein (Poliovirus type 1 (strain Mahoney)), P03300 | AID 588519, 2011; in the data active = % elongation below about 90%; note: some results filed as inactive read as strong as hits
Target sequence (P03300 1749-2209 limits assumed): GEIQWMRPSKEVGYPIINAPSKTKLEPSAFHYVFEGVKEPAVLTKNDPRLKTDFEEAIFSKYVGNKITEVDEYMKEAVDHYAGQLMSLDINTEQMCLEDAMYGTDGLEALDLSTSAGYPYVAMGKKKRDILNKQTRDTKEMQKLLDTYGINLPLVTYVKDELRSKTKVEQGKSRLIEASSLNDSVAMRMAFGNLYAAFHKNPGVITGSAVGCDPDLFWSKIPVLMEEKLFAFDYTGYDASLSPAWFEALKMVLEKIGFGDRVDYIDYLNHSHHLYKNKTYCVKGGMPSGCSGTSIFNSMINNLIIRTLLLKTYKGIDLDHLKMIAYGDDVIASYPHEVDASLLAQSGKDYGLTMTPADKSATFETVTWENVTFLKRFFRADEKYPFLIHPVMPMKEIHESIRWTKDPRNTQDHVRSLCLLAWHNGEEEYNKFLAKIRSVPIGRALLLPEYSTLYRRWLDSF
Mtb MenB inh – M. tuberculosis MenB inhibitors, primary screen, biochemical, absorbance; 100,000 tested, 0.43% active; MenB enzyme assay, absorbance read-out; some hits fall short of the stated cut; 1,4-dihydroxy-2-naphthoyl-CoA synthase (Mycobacterium tuberculosis (strain ATCC 25618 / …; inhibition, %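 (about 12 µg/mL by stock and volumes)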;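 active = mean of two replicates above 30%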;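 note: 0% = no compound and 100% = wells with inactive enzyme; the first replicate is given; strong numbers were not always called active; inactives centre near -10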
Target sequence (P9WNP5 whole entry, looked up): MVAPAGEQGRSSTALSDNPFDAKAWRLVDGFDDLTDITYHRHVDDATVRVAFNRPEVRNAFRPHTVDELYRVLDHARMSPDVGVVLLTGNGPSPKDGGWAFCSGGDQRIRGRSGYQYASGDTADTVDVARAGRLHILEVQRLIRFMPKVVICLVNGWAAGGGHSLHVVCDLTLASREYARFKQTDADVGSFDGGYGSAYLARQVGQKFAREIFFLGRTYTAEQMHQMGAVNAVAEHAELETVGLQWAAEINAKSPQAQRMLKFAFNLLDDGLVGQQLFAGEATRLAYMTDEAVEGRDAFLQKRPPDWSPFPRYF
Mtb MbtI inh – MbtI salicylate synthase inhibitors, primary screen, biochemical, fluorescence intensity; P9WFX0; purified MbtI enzyme, fluorescence intensity read-out; inhibition, %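 (about 17 µg/mL by stock and volumes)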; 100,000 tested, 0.89% active;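 active = above 50% in both replicates, above 80% if mildly self-fluorescent; inactive = the rest, strongly fluorescent compounds included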;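 note: 0% = mean of negative and 100% = mean of positive controls; one replicate is shown; some compounds called inactive have numbers as strong as hits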
PV pol inh intensity – recorded beside PV pol inh, whose call it bears; % elongation; measured here: total intensity read-out; formula for this scale not given here;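 total fluorescence in place of polarization; lower means less elongation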
Active calls of the source: *.

What do the screens show for `O=C(COc1cccc(Cl)c1)NC1CCCCC1`?
PV pol inh: 101; Mtb MenB inh: -4; Mtb MbtI inh: 0; PV pol inh intensity: 100

How did Cc1cc(C)nc(NN)n1 do in these assays?
PV pol inh: 104; Mtb MbtI inh: 1; PV pol inh intensity: 103

What do the screens show for `COc1cc(/C=C/C(=O)OCCOc2ccccc2)ccc1O`?
PV pol inh: 103; Mtb MenB inh: -10; Mtb MbtI inh: -42; PV pol inh intensity: 108

Results for O=C(NCCCn1ccnc1)c1cc(NS(=O)(=O)c2cccs2)cc(NS(=O)(=O)c2cccs2)c1 ?
PV pol inh: 101; Mtb MenB inh: -28; Mtb MbtI inh: -7; PV pol inh intensity: 91

Results for Cn1c(O)c(C=Nc2ccc(N3CCOCC3)c(Br)c2)c(=O)n(C)c1=S ?
PV pol inh: 98; Mtb MenB inh: -26; Mtb MbtI inh: -9; PV pol inh intensity: 108

What do the screens show for `CC(C)(C)c1cc(N=NC(=O)c2ccco2)cc(C(C)(C)C)c1O`?
PV pol inh: 101; Mtb MenB inh: -17; Mtb MbtI inh: 3; PV pol inh intensity: 105

What do the screens show for `COc1ccc(C(=O)O)cc1NC(=S)NC(=O)Cc1ccc(Cl)cc1`?
PV pol inh: 104; Mtb MenB inh: -26; Mtb MbtI inh: -8; PV pol inh intensity: 103

Results for Cc1c(C)c(C)c(CN2C(=O)c3ccccc3C2=O)c(C)c1C ?
PV pol inh: 98; Mtb MenB inh: -11; Mtb MbtI inh: -10; PV pol inh intensity: 96

What do the screens show for `CCS(=O)(=O)c1ccccc1C(=O)Nc1nc2c(s1)CCCC2`?
PV pol inh: 102; Mtb MenB inh: -31; Mtb MbtI inh: 12; PV pol inh intensity: 106

How did Cc1c(C(=O)OC(C)C(=O)Nc2ccc(S(N)(=O)=O)cc2)oc2ccc(Br)cc12 (configuration not stated) do in these assays?
PV pol inh: 103; Mtb MenB inh: -26; Mtb MbtI inh: -14; PV pol inh intensity: 97

What do the screens show for `COc1ccc(C(=O)CNc2ccccc2C#N)cc1`?
PV pol inh: 100; Mtb MbtI inh: -3; PV pol inh intensity: 101

How did CN(C)S(=O)(=O)c1cccc(C(=O)Oc2ccccc2C#N)c1 do in these assays?
PV pol inh: 95; Mtb MenB inh: -29; Mtb MbtI inh: 1; PV pol inh intensity: 101

How did Cc1nnc(C)n1/N=C\c1cccnc1 do in these assays?
PV pol inh: 101; Mtb MbtI inh: -2; PV pol inh intensity: 99

What do the screens show for `CC(Sc1nnc(Nc2ccc(Oc3ccccc3)cc2)s1)C(=O)NC(C)(C#N)C(C)C` (configuration not stated)?
PV pol inh: 113; Mtb MenB inh: -50; Mtb MbtI inh: -4; PV pol inh intensity: 112

What do the screens show for `COc1cc(CNn2cnnc2)ccc1OCC(=O)NC(C)(C)C`?
PV pol inh: 101; Mtb MenB inh: -17; Mtb MbtI inh: -5; PV pol inh intensity: 100

Results for COc1cccc(OCCn2cc(C(=O)c3ccco3)c3ccccc32)c1 ?
PV pol inh: 99; Mtb MenB inh: -25; Mtb MbtI inh: 18; PV pol inh intensity: 102

How did CC(C)(C)c1cc(C(C)(C)C)n(-c2ccc(-n3cccc3)cc2)n1 do in these assays?
PV pol inh: 101; Mtb MenB inh: 0; Mtb MbtI inh: -13; PV pol inh intensity: 99

What do the screens show for `CC(=O)N1CCN(S(=O)(=O)c2cccc(C(=O)Nc3ccc(N(C)C)cc3)c2)CC1`?
PV pol inh: 103; Mtb MenB inh: 8; Mtb MbtI inh: 12; PV pol inh intensity: 99

How did CCOC(=O)c1cnc(SC)nc1Nc1ccccc1 do in these assays?
PV pol inh: 101; Mtb MenB inh: -55; Mtb MbtI inh: -24; PV pol inh intensity: 104

Results for COc1ccc(CC(=O)Nc2ccc(N3CCOCC3)cc2)cc1OC ?
PV pol inh: 109; Mtb MenB inh: -9; Mtb MbtI inh: -10; PV pol inh intensity: 119

Results for Nc1ccccc1SCc1cccc(Cl)c1F ?
PV pol inh: 102; Mtb MenB inh: -12; Mtb MbtI inh: -1; PV pol inh intensity: 110

What do the screens show for `N/C(CCN1CCCCC1)=N\O`?
PV pol inh: 101; Mtb MenB inh: 24; Mtb MbtI inh: -6; PV pol inh intensity: 102

What do the screens show for `CCC(CC)NC(=O)C(C)Oc1ccccc1` (configuration not stated)?
PV pol inh: 109; Mtb MenB inh: -5; PV pol inh intensity: 113

How did O=C(O)Cc1nc2ccc(Cl)cc2[nH]1 do in these assays?
PV pol inh: 100; Mtb MenB inh: -6; Mtb MbtI inh: 3; PV pol inh intensity: 104

Results for CN(C)C(=O)N1CCN(Cc2ccc3c(c2)OCO3)CC1 ?
PV pol inh: 104; Mtb MenB inh: -63; Mtb MbtI inh: -7; PV pol inh intensity: 103

Results for O=C(O)CCS(=O)(=O)c1ccc(Cl)cc1 ?
PV pol inh: 99; Mtb MenB inh: -6; Mtb MbtI inh: -56; PV pol inh intensity: 104

Results for c1ccc(-c2ccc(Oc3ncnc4c3oc3ccccc34)cc2)cc1 ?
PV pol inh: 102; Mtb MenB inh: -21; Mtb MbtI inh: 1; PV pol inh intensity: 99

How did CCc1ccc(N2CC34C=CC(O3)C(C(=O)OC)C4C2=O)cc1 (configuration not stated) do in these assays?
PV pol inh: 100; Mtb MenB inh: -4; Mtb MbtI inh: 0; PV pol inh intensity: 97

What do the screens show for `O=C(NCC1CCCO1)Nc1ccc(Cl)cc1` (configuration not stated)?
PV pol inh: 115; Mtb MenB inh: -11; PV pol inh intensity: 104

What do the screens show for `CC1CCCCC1NC1=NCCCS1` (configuration not stated)?
PV pol inh: 105; Mtb MbtI inh: -4; PV pol inh intensity: 105

How did C=CCn1c(C)cc(-c2csc(NCc3ccccc3)n2)c1C do in these assays?
PV pol inh: 116; Mtb MenB inh: -6; Mtb MbtI inh: -1; PV pol inh intensity: 133

How did COCCn1c(CN2C(=O)c3ccccc3C2=O)nc2cccnc21 do in these assays?
PV pol inh: 99; Mtb MenB inh: 9; Mtb MbtI inh: -1; PV pol inh intensity: 101

How did CCc1ccccc1NC(=O)CN(C)CC(=O)NC1CC1 do in these assays?
PV pol inh: 100; Mtb MenB inh: -6; Mtb MbtI inh: -2; PV pol inh intensity: 107

What do the screens show for `CC(C)Cn1c(SCc2ccccc2)nnc1-c1ccncc1`?
PV pol inh: 100; Mtb MenB inh: -9; Mtb MbtI inh: 12; PV pol inh intensity: 102

What do the screens show for `CCCNC(=O)COc1ccc(-c2nn(C)c(=O)c3ccccc23)cc1`?
PV pol inh: 103; Mtb MenB inh: -17; Mtb MbtI inh: 4; PV pol inh intensity: 100

What do the screens show for `O=C(CSc1nnc2n1CCCN2)c1ccccc1`?
PV pol inh: 105; Mtb MenB inh: 0; Mtb MbtI inh: -4; PV pol inh intensity: 97

How did CC12CCC(C(=O)N3CCc4ccccc4C3)(CC1=O)C2(C)C (configuration not stated) do in these assays?
PV pol inh: 103; Mtb MbtI inh: -19; PV pol inh intensity: 104

What do the screens show for `Cc1nn(-c2ccccc2)c(N)c1C(O)(C(F)(F)F)C(F)(F)F`?
PV pol inh: 98; Mtb MenB inh: -3; Mtb MbtI inh: -7; PV pol inh intensity: 107

Results for O=C(O)CC1S/C(=N/N=C2CCCC2)NC1=O (configuration not stated) ?
PV pol inh: 102; Mtb MenB inh: -20; Mtb MbtI inh: 3; PV pol inh intensity: 102

What do the screens show for `COc1ccc2nc3sc(C(=O)N4CCCC4)c(N)c3cc2c1`?
PV pol inh: 51; Mtb MenB inh: -1; Mtb MbtI inh: 3; PV pol inh intensity: 164

Results for Cn1c(=O)c(=O)n(C)c2cc(S(=O)(=O)N3CCCC3C(=O)O)ccc21 (configuration not stated) ?
PV pol inh: 99; Mtb MenB inh: 7; Mtb MbtI inh: 0; PV pol inh intensity: 97

Results for CCOCC(=O)Nc1ccc(I)cc1 ?
PV pol inh: 99; Mtb MenB inh: 7; Mtb MbtI inh: -20; PV pol inh intensity: 104

How did Cc1ccc(Cl)cc1N(C)C(=O)[C@H]1[C@@H]2C[C@@H]3[C@H]1C(=O)O[C@@H]3C2 do in these assays?
PV pol inh: 103; Mtb MenB inh: -16; Mtb MbtI inh: -12; PV pol inh intensity: 101

Results for CCn1cc(/C=C2/C(=O)N(c3ccccc3)N=C2C)c2ccccc21 ?
PV pol inh: 105; Mtb MenB inh: -22; Mtb MbtI inh: -6; PV pol inh intensity: 103

What do the screens show for `COc1ccc(/C=C2/SC(=S)N(CCC(=O)Nc3ccccc3)C2=O)cc1`?
PV pol inh: 103; Mtb MenB inh: -20; Mtb MbtI inh: -6; PV pol inh intensity: 97

How did O=C(/C=C/Oc1ccc(Cl)cc1)c1ccc(Br)cc1 do in these assays?
PV pol inh: 105; Mtb MenB inh: 10; Mtb MbtI inh: 38; PV pol inh intensity: 97

Results for N#Cc1ccc(Cl)cc1NC(=O)COC(=O)c1n[nH]c2ccccc12 ?
PV pol inh: 101; Mtb MenB inh: 5; Mtb MbtI inh: -5; PV pol inh intensity: 104

What do the screens show for `COc1ccc(-c2cc(C(N)=O)[nH]n2)c(F)c1`?
PV pol inh: 103; Mtb MenB inh: -18; PV pol inh intensity: 112

How did COc1ccc2cc(C#N)c(SCC(=O)N3c4ccccc4CC3C)nc2c1 (configuration not stated) do in these assays?
PV pol inh: 101; Mtb MenB inh: 15; Mtb MbtI inh: 22; PV pol inh intensity: 116

Results for CC(=O)NC1CC(C)(C)N(OC(=O)c2ccccn2)C(C)(C)C1 ?
PV pol inh: 105; Mtb MenB inh: 1; PV pol inh intensity: 99

How did O=C1CC(NC23CC4CC(CC(C4)C2)C3)C(=O)N1Cc1ccc2c(c1)OCO2 (configuration not stated) do in these assays?
PV pol inh: 104; Mtb MenB inh: -9; Mtb MbtI inh: 14; PV pol inh intensity: 103

What do the screens show for `COc1ccc(/C=C2/Sc3ccc(C(=O)NC4CCCc5ccccc54)cc3NC2=O)cc1OC` (configuration not stated)?
PV pol inh: 101; Mtb MenB inh: -74; Mtb MbtI inh: -8; PV pol inh intensity: 105

What do the screens show for `Nn1c(C2CC2)n[nH]c1=S`?
PV pol inh: 97; Mtb MenB inh: -29; Mtb MbtI inh: 21; PV pol inh intensity: 94

Results for Cc1ccc(C(CNC(=O)Nc2ccccc2)N2CCN(C)CC2)cc1 (configuration not stated) ?
PV pol inh: 104; Mtb MenB inh: -11; Mtb MbtI inh: -8; PV pol inh intensity: 104

Results for Cc1ccc(-c2nsc(SCC(N)=O)n2)cc1 ?
PV pol inh: 104; Mtb MenB inh: 6; Mtb MbtI inh: -5; PV pol inh intensity: 99

Results for CC1c2cccc(O)c2CC2=C(O)C3(O)C(O)=C(C(N)=O)C(=O)C(N(C)C)C3C(O)C21 (configuration not stated) ?
PV pol inh: 92; Mtb MenB inh: -78; PV pol inh intensity: 85

Results for CC(C)CC(=O)Nc1cccc2c1C(=O)N(c1ccccc1)C2=O ?
PV pol inh: 102; Mtb MenB inh: -32; Mtb MbtI inh: 15; PV pol inh intensity: 103

How did Cc1ccc(-n2c(NN)nc3sc4c(c3c2=O)CCCC4)cc1 do in these assays?
PV pol inh: 102; Mtb MenB inh: 0; Mtb MbtI inh: 16; PV pol inh intensity: 104

What do the screens show for `CCCCN1C(=O)C2ON(c3ccccc3)C(c3ccc(OC)cc3OC)C2C1=O` (configuration not stated)?
PV pol inh: 99; Mtb MenB inh: -8; Mtb MbtI inh: -2; PV pol inh intensity: 102

How did O=C(c1cc(C(=O)Nc2ccccc2)c(=O)n(-c2ccccc2)c1)c1cc(Cl)ccc1O do in these assays?
PV pol inh: 102; Mtb MbtI inh: -6; PV pol inh intensity: 103

How did Cc1cc2c3c([nH]c2cc1S(=O)(=O)N1CCCC1)CCCC3=O do in these assays?
PV pol inh: 101; Mtb MenB inh: -24; Mtb MbtI inh: -7; PV pol inh intensity: 104

What do the screens show for `Cc1ccc(S(=O)(=O)N2CCN(CCOC(=O)c3ccccc3)CC2)cc1C`?
PV pol inh: 102; Mtb MenB inh: 0; Mtb MbtI inh: -13; PV pol inh intensity: 111

Results for N#CCOC(=O)COc1ccc(Cl)cc1Cl ?
PV pol inh: 99; Mtb MenB inh: 13; Mtb MbtI inh: -3; PV pol inh intensity: 102

What do the screens show for `CCOC(=O)c1cc2cc(OCc3ccccc3)ccc2n1C(=O)c1ccccc1C(=O)O`?
PV pol inh: 106; Mtb MenB inh: 11; Mtb MbtI inh: -4; PV pol inh intensity: 110

How did CC1(c2ccc(Br)cc2)NN=Cc2nc3ccccc3c(=O)n21 (configuration not stated) do in these assays?
PV pol inh: 107; Mtb MenB inh: 6; Mtb MbtI inh: -4; PV pol inh intensity: 104

Arranged by formula weight (rising): 3 of the compounds above.
Results for N#CCOC(=O)COc1ccc(Cl)cc1Cl ?
PV pol inh: 99; Mtb MenB inh: 13; Mtb MbtI inh: -3; PV pol inh intensity: 102

How did CC1(c2ccc(Br)cc2)NN=Cc2nc3ccccc3c(=O)n21 (configuration not stated) do in these assays?
PV pol inh: 107; Mtb MenB inh: 6; Mtb MbtI inh: -4; PV pol inh intensity: 104

How did O=C(c1cc(C(=O)Nc2ccccc2)c(=O)n(-c2ccccc2)c1)c1cc(Cl)ccc1O do in these assays?
PV pol inh: 102; Mtb MbtI inh: -6; PV pol inh intensity: 103

2 compounds drawn at random from those above, as already listed:
What do the screens show for `CCOC(=O)c1cc2cc(OCc3ccccc3)ccc2n1C(=O)c1ccccc1C(=O)O`?
PV pol inh: 106; Mtb MenB inh: 11; Mtb MbtI inh: -4; PV pol inh intensity: 110

How did Cc1cc2c3c([nH]c2cc1S(=O)(=O)N1CCCC1)CCCC3=O do in these assays?
PV pol inh: 101; Mtb MenB inh: -24; Mtb MbtI inh: -7; PV pol inh intensity: 104
